Assay outcomes from PubChem.
CtBP-E1A inh: inhibitors of CtBP/E1A interaction. hit rate 0.49% among 340,000. activity change, % (test concentration not listed). AID 651724. AlphaScreen GST-E1A/His-CtBP binding, 1536-well; hits give low values; control for the full effect not named in the record; in the data active means activity change below about -65%; inconclusive means about -30% to -65%; inactive means above about -30%; also: % is scaled to controls: 0 for no effect and ±100 for the full control effect; compound concentration not given in the record
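In 5 uL wells, 23 nL compound meets equimolar GST-E1A and His-CtBP (5X stock 125 nM each) for 2 h, 37 °C. Beads (5X, 50 ug/mL) then 1 h, 37 °C, dark.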
gsp antagonist: gsp mutant antagonism; gsp-mutant cells, cAMP HTRF, 30 min; control for the full effect not named in the record; Potency, µM (top dose mostly 76.9 µM), inactives show at the top dose activity change, negative = inhibition, hits mostly inhibitors; hit rate 0.4% among 340,000; AID 624288; active = falling curve of any shape with a large fitted effect; inconclusive = falling curve, mostly with a smaller effect; inactive = flat or rising curve; cell line not stated here;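 also: intracellular cAMP measured with PDE inhibitor Ro 20-1724 present during compound exposure; potency is read from the fitted curve at half-maximal effect; % is scaled to controls: 0 for no effect and ±100 for the full control effect; nearly all actives have a fitted effect of over 65% in size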
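HTRF cAMP read-out (cAMP-d2 plus anti-cAMP antibody-K in lysis buffer, 30 min RT). Before lysis, cells are exposed to compounds with […] for 30 min at 37C in DPBS containing Ca/Mg, BSA and Tween 20.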
Sfp PPTase inh: blocks B. subtilis Sfp PPTase activity | Biochemical Sfp PPTase activity, qHTS | Potency, µM, for inactives: max response, negative = inhibition, usual class: inhibitors | hit rate 3.5% among 310,000 | AID 1490; active = well fitted inhibition curve with a large enough effect; inconclusive = small, poorly fitted or top-dose-only effect, or another doubt; inactive = no such curve, though single readings can be large or run the other way;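 also: the enzyme is Sfp with the accession as filed and its product quenches rhodamine fluorescence; potency is read from the fitted curve at half-maximal effect; 0% = enzyme reaction without inhibitor and -100% = no enzyme wells; top concentration of the series not given in the record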
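Sfp 15 nM + cpd, 15 min RT; start w/ rhodamine-CoA 5 uM, BHQ-2-YbbR 12.5 uM (final); 50 mM Hepes pH 7.6, 10 mM MgCl2, 0.01% NP-40, 0.01% BSA; read 525/598 nm at 0 and 30 min.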
TRPV1 PAM: enhances activation of the human vanilloid receptor TRPV1 | Q8NER1 | TRPV1-expressing cells, Fluo-8 calcium influx, capsaicin EC20 potentiation; host cell line not named in the record; control for the full effect not named in the record | potentiation, % at 8.33 µM | hit rate 0.02% among 320,000 | AID 540277; active means potentiation above 80%; inconclusive means 30% to 80%; inactive means below 30%; also: 0% is about no effect
Target sequence (Q8NER1 whole entry, looked up): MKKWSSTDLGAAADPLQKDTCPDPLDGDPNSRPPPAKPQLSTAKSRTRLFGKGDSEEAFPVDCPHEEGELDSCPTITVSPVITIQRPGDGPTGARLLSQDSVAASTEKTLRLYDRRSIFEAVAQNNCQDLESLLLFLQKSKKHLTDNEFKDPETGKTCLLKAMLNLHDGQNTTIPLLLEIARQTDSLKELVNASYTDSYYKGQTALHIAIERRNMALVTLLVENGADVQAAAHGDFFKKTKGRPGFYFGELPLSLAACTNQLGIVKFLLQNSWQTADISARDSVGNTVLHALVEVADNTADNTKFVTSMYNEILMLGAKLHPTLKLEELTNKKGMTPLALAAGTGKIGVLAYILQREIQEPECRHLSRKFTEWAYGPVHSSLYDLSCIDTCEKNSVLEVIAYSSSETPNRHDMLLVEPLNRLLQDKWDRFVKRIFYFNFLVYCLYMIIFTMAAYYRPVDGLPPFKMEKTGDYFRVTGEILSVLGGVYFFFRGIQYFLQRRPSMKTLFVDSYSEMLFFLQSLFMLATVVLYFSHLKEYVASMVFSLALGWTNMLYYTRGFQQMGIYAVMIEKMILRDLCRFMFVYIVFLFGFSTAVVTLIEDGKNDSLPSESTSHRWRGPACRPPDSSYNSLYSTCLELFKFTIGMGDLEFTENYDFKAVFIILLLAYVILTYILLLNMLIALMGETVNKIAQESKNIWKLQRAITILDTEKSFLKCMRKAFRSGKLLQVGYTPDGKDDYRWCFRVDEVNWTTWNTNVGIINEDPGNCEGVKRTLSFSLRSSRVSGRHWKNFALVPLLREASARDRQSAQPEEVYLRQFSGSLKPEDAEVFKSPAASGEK
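TRPV1-expressing cells were cultured overnight at 35.5C and loaded with Fluo-8 calcium dye for 40 to 90 min at room temperature. After a 10 s baseline, compound was added and calcium influx was read kinetically for 3 min (ex 480/em 520 nm).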
ClpP mod: qHTS Assay for Activators of ClpP | ATP-dependent Clp protease proteolytic subunit (Bacillus subtilis (strain 168)), P80244 | purified B. subtilis ClpP, FRET peptide cleavage, 20 min | Potency, µM (doses to about 57.5 µM), for inactives: at the top dose activity change, negative = active | hit rate 1.9% among 340,000; active = well fitted falling curve with a large enough effect; inconclusive = small, poorly fitted or top-dose-only effect; inactive = no such curve, though single readings can be large or run the other way; also: potency is read from the fitted curve at half-maximal effect; the source files actives as falling curves though it sought activators and does not explain the sign; nearly all actives have a fitted effect of over 65% in size; many hits overshoot -100%
Target sequence (P80244 whole entry, looked up): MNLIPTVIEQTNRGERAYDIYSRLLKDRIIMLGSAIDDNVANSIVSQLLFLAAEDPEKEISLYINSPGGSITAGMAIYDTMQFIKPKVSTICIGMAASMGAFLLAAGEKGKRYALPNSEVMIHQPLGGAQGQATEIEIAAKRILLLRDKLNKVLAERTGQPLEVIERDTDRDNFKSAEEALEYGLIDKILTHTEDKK
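Buffer: 100 mM Tris/HCl pH8, 100 mM KCl, 0.05% low protease BSA, 2.5% glycerol, 0.01% Tween-20. ClpP 10 microg/mL final; 20 min RT; delta FRET normalized to ADEP and DMSO controls.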
gsp agonist: gsp mutant agonism; gsp mutant cells, cAMP HTRF, 30 min; control for the full effect not named in the record; AID 624287; hit rate 0.13% among 340,000; Potency, µM (doses to about 76.9 µM), without a hit: at the highest dose activation (cAMP increase), hits mostly activators; active = well fitted activation curve with a large enough effect; inconclusive = small, poorly fitted or top-dose-only effect, or another doubt; inactive = no such curve, though single readings can be large or run the other way; cell line not stated here;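 also: phosphodiesterase inhibitor Ro 20-1724 added with compounds to block cAMP breakdown; potency is read from the fitted curve at half-maximal effect; nearly all actives have a fitted effect of over 60% in size; about a fifth of the inactives were tested at one dose only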
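Cells stably selected in G418 were plated at 2000/well, grown 16-24 hr, then given compounds in DMSO with the PDE inhibitor […] (300 uM solution added) for 30 min at 37C; cAMP was read by HTRF.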
Menin MLL FP FL: inhibitors of human menin-MLL interaction, wild-type MLL peptide. 290,000 tested, under 10 active. AID 1766. Fluorescence polarization, fluorescein-MLL peptide displacement from menin. FP activity change, % at 61.4 µM; inconclusive = falling polarisation curve, or a change in total fluorescence; inactive = total fluorescence flat and polarisation flat or rising; no compound was filed as active; the % refers to the polarisation; negative = inhibition;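 also: % of control where 0% means no effect; inhibitors lower the polarisation; unlabelled MLL peptide was the positive control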
Active calls of the source: *; ? = inconclusive; . = no result given; [ ] = another dose, or the depositor's remark.

Under each structure: gsp antagonist, Sfp PPTase inh, ClpP mod, TRPV1 PAM, gsp agonist, Menin MLL FP FL, CtBP-E1A inh
- O=C(NC1CCCCC1)c1cc(S(=O)(=O)N2CCCCC2)ccc1N1CCOCC1
  -4%, ., -3.8%, -24, 1%, ., .
- COc1ccccc1C(=O)NNC(=O)CCC(=O)NCc1ccccc1
  5%, -1%, -1.7%, -4, 5%[15.4 µM], -4.7, 0
- OCc1cc(-c2ccccn2)no1
  3%, ., 2.1%, -32, 1%, ., 4
- CS(=O)(=O)Nc1ccc2c3c(cccc13)CC2
  10%, 13%, ?, ?, 3%, 7.7, 7
- CC[C@@H](C)[C@@H]1CN([C@@H](C)CN2CCC[C@H]2CN2C(N)=NC[C@H]2CC(C)C)C(=N)N1CCCC1CCCC1
  14%, ., ?, ., ., ., -4
- Cc1cc(Cl)nc2ccc(Cc3ccc4nc(Cl)cc(C)c4c3)cc12
  1%, 7%, -2.3%, 19, -5%, -13, .
- CCCCCN(C(=O)CCC(=O)OCc1cccc(Cl)c1)c1c(N)n(CCCC)c(=O)[nH]c1=O
  -3%, ., 0.8%, -2, ?, ., 6
- CCC(C)[C@H](NC(=O)N1CCC(Cc2ccccc2)CC1)C(=O)O (stereo partly drawn)
  3%, 8%, 1.8%, 1, 6%, -6.0, .
- CCC(C)NCC(=O)Nc1ccc(S(N)(=O)=O)cc1 (stereo not drawn)
  4%, 5%, ., 1, -13%[15.4 µM], -1.8, 1
- CCC(=O)Nc1ccc(C(=O)CSc2nnc(-c3ccc(O)cc3)n2CC2CCCO2)cc1 (stereo not drawn)
  5%, 79µM*, -1.3%, -10, ?, 1.3, 0
- Cc1nn(C)c(C)c1/C=N/NC(=O)CCn1nc(C)c([N+](=O)[O-])c1C
  5%, 15%, -1.0%, -10, -20%, -4.1, -3
- COc1ccccc1N(CC(=O)NCCSc1ccccc1)S(=O)(=O)c1ccccc1
  -30%, ., -2.4%, ., -49%[inhibitor], ., -9
- COC(=O)c1scc(C)c1N/N=C(\C)c1ccc(F)cc1
  ?, -1%, -13%, 12, -9%, 4.6, 0
- O=C(CSc1nnc(NC(=O)c2ccccc2C(=O)O)s1)Nc1ccccc1Cl
  6%, 1%, ., ?, -7%[15.4 µM], -1.1, .
- COc1ccc2nc(NC(=O)c3ccc(Br)s3)sc2c1
  ?, 5%, -10%, -13, 25%, -2.5, 3
- FC(F)Oc1cccc(NC(=S)N2CCN(c3ccccn3)CC2)c1
  -1%, -9%, -11%, 1, ?, -7.6, -13
- CCc1nnc(NC(=O)CSc2nnc(CNc3ccc(C)cc3)n2C)s1
  1%, 10%, -0.8%, -2, -20%, -2.9, -3
- Nc1c(C(=O)Nc2ccccc2)sc2nc3c(c(-c4ccco4)c12)CCCC3
  3%, 6%, -0.9%, -12, 29%, ?, 8
- CC(C)(C)c1ccc(CSc2nnc(-c3ccccn3)n2Cc2ccco2)cc1
  -17%, 32µM*, -3.3%, -4, 4%[15.4 µM], -2.0, 4
- CC(=O)N/C(=C\c1ccccc1)C(=O)OCC(=O)c1c(N)n(C)c(=O)n(C)c1=O
  -1%, ., 1.4%, ., -1%[15.4 µM], ., -1
- Cc1ccc(NC(=O)NC2=N/C(=C(/C#N)C(=O)N3CCCC3)c3ccccc32)cc1
  -10%, -14%, 3.9%, -14, 0%, 0.8, -23
- CC1=C(C(=O)Nc2cc(C(=O)N3CCN(c4cccc(C)c4C)CC3)ccc2C)SCCO1
  50µM*, -5%, -0.3%, ?, 13%, ., -23
- COc1ccc(N(CC(=O)Nc2cc(C)cc(C)c2)S(=O)(=O)c2ccccc2[N+](=O)[O-])c(OC)c1
  -8%, 6%, ., -3, -35%[inhibitor], -3.5, -6
- Cc1cccc(NC(=O)CNC(=O)C23CC4CC(CC(Cl)(C4)C2)C3)n1
  1%, ., -3.7%, 12, -22%, ., -18
- Cc1cccc(N2CCN(S(=O)(=O)c3ccc4c(c3)n(C)c(=O)c(=O)n4C)CC2C)c1 (stereo not drawn)
  4%, -1%, -0.4%, -1, -13%, 3.4, 1
- CCCCn1c(N)c(N(CC(C)C)C(=O)CC(NC(=O)c2ccccc2)c2ccccc2)c(=O)[nH]c1=O (stereo not drawn)
  9%, ., 0.4%, 19, -23%, ., 1
- COC(=O)c1sccc1N/N=C/c1ccc(OC)c(OC)c1OC
  -8%, ?, -0.1%, -2, -15%[15.4 µM], 8.5, -2
- CC(C)N1C(=O)CCC1C(=O)N1CCC(Cc2ccccc2)CC1 (stereo not drawn)
  14%, 5%, -0.9%, -5, 2%, 5.0, 6
- COc1cccc(CNC(=O)C2CCC(CNS(=O)(=O)c3cccc4nsnc34)CC2)c1 (stereo not drawn)
  -12%, 21%, -1.6%, 9, -30%[inhibitor], -0.7, -1
- O=C(Cc1ccc(F)cc1)Nc1c2c(nn1-c1cccc(Cl)c1)CS(=O)C2 (stereo not drawn)
  3%, 13%, -1.8%, 16, -1%[15.4 µM], 0.0, 3
- CCOc1ccc(CCNC(=O)COc2cccc(-n3cnnn3)c2)cc1OCC
  -3%, ., -0.7%, -2, -6%[15.4 µM], ., -4
- CCCCNC(=S)NNC(=O)C1=NN(c2cc(C)ccc2C)C(=O)CC1
  -12%, 27%, ., 4, 28%, -6.1, -14
- CCCCN(C)C(=O)c1cc2cc([N+](=O)[O-])cc(OC)c2oc1=O
  -13%, 13%, -3.8%, -29, 15%[15.4 µM], -1.1, -18
- O=C(NCCCC(=O)N1CCCCC1)c1ccc(Cl)cc1
  10%, 1%, 1.2%, 1, 63%[15.4 µM], ., 6
- CCOC(=O)c1ccc(N=C2SC(C(=O)NCCc3ccccc3)CC(=O)N2C)cc1 (stereo not drawn)
  -14%, 3%, 0.8%, -26, 9%, 0.8, 6
- Nc1nc2ccc(C(=O)Nc3ccc(N4CCOCC4)cc3)cc2s1
  -8%, ., -2.7%, ., -26%, ., -1
- Cc1cc(=O)[nH]c(Nc2c(C)n(C)n(-c3ccccc3)c2=O)n1
  -2%, 15%, 190%, ., -5%, 2.6, 17
- C=CCn1c(SCC(=O)NC)nnc1C12CC3CC(CC(C3)C1)C2
  9%, 6%, ., -24, -60%[inhibitor], 0.2, 6
- COC(=O)[C@H](CCSC)NC(=O)Cn1cnc(C(=O)Nc2ccc(C)c(C)c2)n1
  -8%, ., 1.8%, ., ., ., -1
- Cc1nc2ccc(NC(=O)c3ccc(S(=O)(=O)N4CCOCC4)cc3)cc2s1
  -1%, 9%, -2.4%, -2, -11%, 5.0, -2

Retrieved by compound from the entries so far:
Under each structure: gsp antagonist, Sfp PPTase inh, ClpP mod, TRPV1 PAM, gsp agonist, Menin MLL FP FL, CtBP-E1A inh
- COC(=O)c1sccc1N/N=C/c1ccc(OC)c(OC)c1OC
  -8%, ?, -0.1%, -2, -15%[15.4 µM], 8.5, -2
- COc1ccc(N(CC(=O)Nc2cc(C)cc(C)c2)S(=O)(=O)c2ccccc2[N+](=O)[O-])c(OC)c1
  -8%, 6%, ., -3, -35%[inhibitor], -3.5, -6

(more compounds)
Under each structure: gsp antagonist, Sfp PPTase inh, ClpP mod, TRPV1 PAM, gsp agonist, Menin MLL FP FL, CtBP-E1A inh
- COc1ccc(Cc2noc(=O)[nH]2)cc1
  ., ., -0.6%, ., 18%, ., 0
- Cc1nnc(NS(=O)(=O)c2ccc(Br)cc2)s1
  -1%, 4%, ., 9, -24%, 1.0, 5
- Cc1ccnc(SCC(=O)NC2CC2)n1
  6%, -8%, -0.9%, 7, ?, ., -17
- Cc1ccc(S(=O)(=O)N2C(=O)c3cccc4cccc2c34)cc1
  5%, -3%, -9.1%, 3, -24%, 0.5, -17
- Cn1cccc1C(=S)N1CCOCC1
  -1%, -27%, 1.0%, ?, 20%, 1.0, 7
- O=C(NC(=S)Nc1ccccc1)c1cncc(C#Cc2ccccc2)c1
  -10%, -20%, ., -1, 28%, -0.9, -8
- Cc1[nH]c2ccc(Br)cc2c(=S)c1C/C=C/Cl
  14%, 10%, -5.0%, -3, ?, 4.9, -8
- O=S(=O)(C(=CNc1ccccc1)S(=O)(=O)c1ccccc1)c1ccccc1
  3%, 7%, -1.1%, -13, -42%[inhibitor], 0.7, -2
- Cc1ccc(N2CCCn3c2cc(C)c(C#N)c3=O)cc1Cl
  0%, 6%, ?, 9, -20%, 2.0, -6
- Cc1ccc2cc(C=C(C#N)C#N)c(N3CCCCC3)nc2c1
  13%, -13%, 1.3%, -10, ?, ?, 13
- CCOC(=O)C1CCCN(C(=O)C2CCCN(S(=O)(=O)c3ccc4c(c3)oc(=O)n4C)C2)C1 (stereo not drawn)
  1%, 6%, -0.4%, 26, -26%, -4.1, 3
- CN(CCOc1ccc(Cl)cc1)C(=O)Cc1ccc(S(=O)(=O)N2CCOCC2)s1
  -6%, ., 1.3%, -7, 6%, ., 3
- CCN(CC)CCN(C(=O)Cn1nnc(-c2ccc(C)o2)n1)C(C(=O)NC1CCCC1)c1ccc(F)cc1 (stereo not drawn)
  9%, 7%, ., -5, -19%, -8.7, 3
- COc1cc2c(cc1OC)CN(S(=O)(=O)c1ccc(Cl)nc1)CC2
  -11%, ., 0.9%, -15, -6%, ., 1
- N#CCCN(C(=O)COC(=O)c1cccc(S(=O)(=O)N2CCCCCC2)c1)c1ccc(F)cc1
  -7%, ., -1.6%, ., -18%, ., -4
- CCn1cnc2c(oc3ccccc32)c1=O
  -4%, 9%, ., -5, 25%, -4.0, -20
- CCN(C(=O)COC(=O)CSc1ccc(F)cc1)c1c(N)n(Cc2ccccc2)c(=O)[nH]c1=O
  18%, ., 3.2%, 3, ?, ., 3
- COc1cccc(OC)c1C(=O)NCCN1CCN(C(=O)c2c(OC)cccc2OC)CC1
  -3%, 20%, -0.9%, 1, -29%, -1.4, 0
- CCOC(=O)c1ccccc1NC(=S)N1CCC(N2CCCCC2)CC1
  10%, 1%, -1.8%, 4, -53%[inhibitor], -2.5, 2
- O=C(CSc1nnc(CNc2ccccc2)o1)N1CCCc2ccccc21
  -18%, 1%, 2.2%, ., -102%[inhibitor], -2.3, ?
